# Screening data as filed in PubChem BioAssay.
# MLL AF4-AF9 inh: MLL-AF4/AF9 protein interaction inhibition; 350,000 tested, 0.47% active; AlphaScreen, biotin-AF4 peptide binding to FLAG-AF9; P42568; inhibition, % at 10 µM;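 active means every replicate reaching a set inhibition limit, whatever the replicate mean, cut at about 25% in these data; inconclusive means mean inhibition reaches that limit but some replicates miss it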;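 further: 0% = plate neutral control median and 100% = total signal loss; the record names both 10 and 1 µM as test concentration; the first replicate is given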
# Target sequence (P42568 whole entry, looked up): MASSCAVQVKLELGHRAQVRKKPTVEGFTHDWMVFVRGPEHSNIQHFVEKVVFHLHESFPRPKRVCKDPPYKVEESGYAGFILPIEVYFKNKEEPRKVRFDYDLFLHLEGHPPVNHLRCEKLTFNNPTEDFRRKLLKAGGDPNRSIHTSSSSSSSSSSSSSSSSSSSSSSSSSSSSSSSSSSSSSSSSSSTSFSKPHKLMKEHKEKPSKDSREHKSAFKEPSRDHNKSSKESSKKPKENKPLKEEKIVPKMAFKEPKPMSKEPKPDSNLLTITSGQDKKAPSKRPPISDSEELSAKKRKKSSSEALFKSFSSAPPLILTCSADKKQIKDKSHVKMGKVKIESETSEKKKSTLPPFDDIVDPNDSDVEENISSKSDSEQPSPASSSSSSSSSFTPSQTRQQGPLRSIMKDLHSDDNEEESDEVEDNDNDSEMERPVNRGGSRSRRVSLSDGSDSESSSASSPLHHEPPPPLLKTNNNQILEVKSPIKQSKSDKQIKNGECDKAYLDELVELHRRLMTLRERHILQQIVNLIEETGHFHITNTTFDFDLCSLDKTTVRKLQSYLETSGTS
# RanGTP-Imp inh: disruptors of Ran-importin-beta complex formation – biochemical, FRET, CFP-Ran, YFP-importin-beta, homogeneous, primary screen; cell-free CFP-Ran/YFP-importin-beta FRET ratio; inhibition, % (test concentration not listed); 300,000 tested, 1.1% active;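 active means most replicates above 15%; inconclusive means exactly half above 15%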;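 further: 0% = DMSO wells and 100% = Ran loaded with GDP instead of GTP; wells of about 40 µL received 100 nL stock; the first replicate is given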
# rRNA inh HTS: selective bacterial rRNA inhibition in E. coli | E. coli WT GFP vs humanized-ribosome RFP mutants, fluorescence, 24 h; active compounds read low; DMSO median 0, no signal -100 | GFP signal change (wild-type ribosome), % (no concentration beside the values) | 350,000 tested, 1.6% active;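 active means significant combined selectivity score with lowered wild-type GFP, culture density cut under 30%, mutant RFP and density less affected; inactive means any of these conditions unmet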; further: one replicate is shown; some compounds called inactive have numbers as strong as hits
# Calb FLC: C. albicans growth modulation with fluconazole. C. albicans CaCi-2 (fluconazole-resistant clinical isolate) + fluconazole, Alamar Blue growth, 48 h. growth inhibition, % (no concentration beside the values). 300,000 tested, 0.57% active;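 active means most replicates above 75%; inconclusive means exactly half above 75%; inactive means most below 75%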;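 further: all wells also contain fluconazole at 8 µg/ml as a sub-toxic cotreatment; 0% = median of DMSO wells and 100% = median of geldanamycin control wells; wells of about 8 µL received 7.5 nL stock; the first replicate is given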
# FGF22 binding: binders of recombinant human FGF22 by thermal shift | SYPRO orange fluorescence; percent of sucrose octasulfate shift, DMSO zero | calls only at 9.99 µM | 340,000 tested, 1.5% active | AID 651658;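 active means melting point raised past a set limit in the mean and every replicate; inconclusive means no clear call; three in four hits are not shown here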
# Target sequence (Q9HCT0 whole entry, looked up): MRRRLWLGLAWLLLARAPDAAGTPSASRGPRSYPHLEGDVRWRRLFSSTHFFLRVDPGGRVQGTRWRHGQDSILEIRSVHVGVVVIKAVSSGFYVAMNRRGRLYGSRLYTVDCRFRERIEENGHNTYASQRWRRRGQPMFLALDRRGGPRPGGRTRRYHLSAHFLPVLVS
# T cruzi repl: T. cruzi replication inhibition | T. cruzi beta-gal in NIH3T3, luminescence, 90 h | inhibition, % (no concentration beside the values) | 300,000 tested, 1.4% active | AID 1885;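 active means mean inhibition across valid replicates above about 55%, limit read from the data; inconclusive means mean below that limit but half or more replicates reach it; inactive means mean below it, under half of replicates reach it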;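 further: signal also drops with host cell toxicity which is not excluded here; 0% = plate median of DMSO wells and 100% = zero luminescence signal; higher percent means less beta-gal luminescence so fewer parasites; stock transfer was 50 nL into about 50 µL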
# Beta cell apopt: beta cell apoptosis inhibition. INS-1E cytokine-induced death, ATP luminescence, 48 h; percent of positive-control rescue, neutral wells zero. protection from apoptosis, % (test concentration not listed). 300,000 tested, 0.8% active;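 active means all replicates at 75% or more, or half of them and the mean; inconclusive means half reach 75% but not the mean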;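 further: 0% = cytokine-treated negative control wells and 100% = positive control rescue; higher means more ATP so stronger rescue from cytokine killing; wells of about 40 µL received 100 nL stock; the first replicate is given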
# ALR inh: inhibitors of human sulfhydryl oxidase ALR; P55789; purified ALR, DTT oxidation, H2O2 HRP-luminol luminescence; inhibition, % (concentration not given with the values); 290,000 tested, 3.8% active; AID 485317;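 active means mean and each replicate at 75% or more; inconclusive means only one of the two met; inactive means neither met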;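 further: stock transfer was 7.5 nL into about 7.5 µL; 0% = neutral wells and 100% = wells with inactivated enzyme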
# Target sequence (P55789 whole entry, looked up): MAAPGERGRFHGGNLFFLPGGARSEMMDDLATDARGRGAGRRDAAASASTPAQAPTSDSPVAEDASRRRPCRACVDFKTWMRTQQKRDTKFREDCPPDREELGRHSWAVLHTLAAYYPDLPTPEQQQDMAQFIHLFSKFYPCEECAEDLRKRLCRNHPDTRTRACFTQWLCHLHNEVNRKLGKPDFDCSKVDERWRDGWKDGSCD
# rRNA inh HTS OD600: also measured in rRNA inh HTS; calls as there; OD600 change, %; measured here: OD600 growth;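 optical density of the mix in the first replicate; 0 = DMSO median and -100 = no signal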
# rRNA inh HTS RFP: further read-out of rRNA inh HTS, marked with its call; RFP signal change, %; measured here: RFP humanized mutant strains;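 first replicate; 0 = DMSO median and -100 = no signal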
# * = called active by the depositor; i = inactive; ? = inconclusive; . = not tested or not shown; + = active, no number; & = joins results of further samples. A portion of the library. The share of hits here may be higher or lower than overall.
# The opening 7 entries, ahead of the listing:
# Order of values: rRNA inh HTS	RanGTP-Imp inh	ALR inh	Calb FLC	Beta cell apopt	MLL AF4-AF9 inh	rRNA inh HTS RFP	FGF22 binding	T cruzi repl	rRNA inh HTS OD600
1: COc1cc(S(=O)(=O)NC2CCCC2)ccc1Cl
 : .	3.1	1	-3	1	.	.	.	-28	.
2: CC1(C)CC(=O)C(CC(=O)N2CCC(Cc3ccccc3)CC2)C(=O)C1
 : 5	6.7	3	-7	-4	-0.1	-1.3	.	-2	-4
3: COc1cc(/C=C2\SC(=S)N(Nc3ccccc3)C2=O)cc(OC)c1OC
 : .	-4.1	-4	1	47	.	.	.	6	.
4: Fc1ccc(Cn2nnnc2CN2CCc3ccccc3C2)cc1
 : .	2.4	8	5	5	.	.	.	23	.
5: CCCCCCSc1nsc(NC(=O)CCC)n1
 : -21	1.3	-2	-18	-4	-2.4	1.7	i	41	-14
6: O=C(NCCCN1CCOCC1)C(=O)N/N=C/c1c2ccccc2cc2ccccc12
 : .	-25	-6	6	30	.	.	.	9	.
7: C[C@H](CO)N1C[C@H](C)[C@@H](CN(C)C(=O)NC2CCCCC2)Oc2c(NC(=O)Nc3ccccc3)cccc2C1=O
 : -6&-10	.	2	.	-6	-8.3&3.7	-4.0&5.0	i	.	-9&-9

# Main list, from the start:
# Order of values: rRNA inh HTS	RanGTP-Imp inh	ALR inh	Calb FLC	Beta cell apopt	MLL AF4-AF9 inh	rRNA inh HTS RFP	FGF22 binding	T cruzi repl	rRNA inh HTS OD600
1: COc1cc(S(=O)(=O)NC2CCCC2)ccc1Cl
 : .	3.1	1	-3	1	.	.	.	-28	.
2: CC1(C)CC(=O)C(CC(=O)N2CCC(Cc3ccccc3)CC2)C(=O)C1
 : 5	6.7	3	-7	-4	-0.1	-1.3	.	-2	-4
3: COc1cc(/C=C2\SC(=S)N(Nc3ccccc3)C2=O)cc(OC)c1OC
 : .	-4.1	-4	1	47	.	.	.	6	.
4: Fc1ccc(Cn2nnnc2CN2CCc3ccccc3C2)cc1
 : .	2.4	8	5	5	.	.	.	23	.
5: CCCCCCSc1nsc(NC(=O)CCC)n1
 : -21	1.3	-2	-18	-4	-2.4	1.7	i	41	-14
6: O=C(NCCCN1CCOCC1)C(=O)N/N=C/c1c2ccccc2cc2ccccc12
 : .	-25	-6	6	30	.	.	.	9	.
7: C[C@H](CO)N1C[C@H](C)[C@@H](CN(C)C(=O)NC2CCCCC2)Oc2c(NC(=O)Nc3ccccc3)cccc2C1=O
 : -6&-10	.	2	.	-6	-8.3&3.7	-4.0&5.0	i	.	-9&-9
8: COc1cc(NC(=O)c2ccc(C)cc2)c(OC)cc1NC(=O)CN1CCCCC1
 : .	1.2	-13	0	-3	.	.	.	18	.
9: COC(=O)C1=C(C)NC(=O)/C1=C\c1cc(C)n(-c2ccccc2C)c1C
 : .	-4.4	9	1	-1	.	.	.	22	.
10: COc1ccc(N2CC(C(=O)OCC(=O)Nc3ccccc3C)CC2=O)cc1 (stereo not drawn)
 : 2	?	-2	6	.	0.0	-0.7	i	-10	0
11: CCN(CC(=O)Nc1c(F)cccc1F)C(=O)c1ccc2ncsc2c1
 : 0	.	-23	-7	1	-0.9	-2.8	i	-7	3
12: CCOc1ccc(NC(=O)CC2C(=O)N(c3ccc(OC)cc3)C(=S)N2Cc2ccccn2)cc1 (stereo not drawn)
 : -7	5.1	-9	1	-2	7.3	4.8	+	16	-5
13: C/C(=N\NC(=O)c1cccc([N+](=O)[O-])c1)c1ccncc1
 : 23	-1.5	-4	-2	2	-0.3	-1.2	.	1	15
14: Cc1cccc(-n2cnc(C(=O)N/N=C/c3ccccc3)c2)n1
 : .	1.5	15	21	3	.	.	.	0	.
15: COc1ccc([N+](=O)[O-])cc1NC(=O)C(C)OC(=O)CSC(C)C(=O)Nc1cc(C)on1 (stereo not drawn)
 : 0	-1.7	6	-12	-8	-16	-0.1	i	3	-3
16: C=CCNC(=O)CN(Cc1ccccc1)S(=O)(=O)c1ccc(C)cc1
 : -7	-3.0	-15	-22	-3	0.0	-3.7	i	-11	-6
17: COc1cccc(CN2CC(C(=O)N3CCN(c4ccc(Cl)cc4)CC3)CCC2=O)c1 (stereo not drawn)
 : -8	0.0	.	23	6	2.7	-0.5	i	9	-22
18: COc1ccc(CCNC2=NCCS2)cc1OC
 : 21	3.5	-1	-1	-4	-2.2	-2.4	i	25	11
19: Cc1cc(OC(C)C)c2c(-c3ccccc3)cc(=O)oc2c1
 : .	-2.9	0	5	13	.	.	.	25	.
20: Cc1nc(Cc2nnc(SCC(=O)N(C)c3ccccc3)o2)cs1
 : 1	.	-9	-1	-1	0.6	1.3	i	-14	0
21: CCC(Sc1ncnc2c1nnn2-c1ccc(F)cc1)C(=O)OC (stereo not drawn)
 : .	-0.7	96*	-12	-4	.	.	.	-14	.
22: CC(C)CC(NC(N)=O)C(=O)NCc1ccc(Cl)cc1 (stereo not drawn)
 : 9	-2.3	12	1	4	-1.4	-0.5	i	-7	11
23: CCC(CC)c1nnc(NC(=O)CS(=O)(=O)Cc2ccccc2)s1
 : .	-2.6	-3	9	-3	.	.	.	-10	.
24: CC1CCc2c(sc(NC(=O)c3ccccc3C(=O)O)c2C#N)C1 (stereo not drawn)
 : -7	0.1	97*	0	0	-3.5	-2.0	i	-4	4
25: O=C(COc1ccc(Cl)cc1Cl)N(c1ccccn1)C1CCCCC1
 : .	-2.2	0	2	2	.	.	.	22	.
26: Cc1cc(OC(C)C(=O)NCC2CCC(C(=O)O)CC2)c2c(C)cc(=O)oc2c1 (stereo not drawn)
 : 7	4.5	-4	0	3	0.1	1.6	i	-4	4
27: COc1ccc(/C=N/NC(=O)c2[nH]nc3c2CCc2ccccc2-3)cc1OC
 : -17	4.3	16	-9	41	1.1	-3.9	i	-47	-6
28: COc1ccc(NS(=O)(=O)c2cccc(NC(=O)CCS(=O)(=O)c3ccccc3)c2)cc1
 : .	3.9	0	7	13	.	.	.	-37	.
29: Cc1cc(NC(=O)c2cc(-c3ccc(O)cc3)on2)no1
 : 0	2.1	28	-5	-1	7.4	-1.9	i	13	-3
30: O=C(Nc1ccccc1)N1CCNCC1
 : 7	1.6	-11	13	-3	-1.5	-0.1	i	-12	8
31: CC(C)[C@H](NC(=O)C1CCN(S(=O)(=O)c2ccccc2)CC1)C(=O)NCc1ccco1
 : 18	3.5	-2	0	-1	0.0	4.1	i	-4	19
32: Cc1ccc(CN2CC(C(=O)N3CCN(S(=O)(=O)c4cc(C)ccc4C)CC3)CC2=O)cc1 (stereo not drawn)
 : -9	4.3	-1	6	-3	2.2	3.0	i	5	-15
33: O=C1c2ccccc2C(Nc2cccc(C(F)(F)F)c2)N1Cc1ccco1 (stereo not drawn)
 : .	-0.1	3	.	9	.	.	.	-26	.
34: Cc1ncc(CO)c2c1Oc1nc(-c3ccccc3)nc(SCC(=O)N(C)c3ccccc3)c1C2
 : -8	5.6	-7	21	.	-0.8	5.8	i	17	-11
35: O=S(=O)(c1ccc(NC(=S)N/N=C/c2c3ccccc3cc3ccccc23)cc1)N1CCOCC1
 : -1	.	-10	.	-1	-2.3	-1.7	i	-4	0
36: COCCCN1C(=O)C(=O)/C(=C(/O)c2ccc(S(=O)(=O)N3CCOCC3)cc2)C1c1ccc(C)cc1 (stereo not drawn)
 : 6	5.1	-10	-3	2	-2.2	4.1	i	-2	6
37: O=C1CCCc2c1cc(C(=O)Nc1ccc(Cl)cn1)c(=O)n2-c1ccccc1
 : .	-5.3	.	13	0	.	.	.	-12	.
38: COc1ccc(CCNC(=O)C2c3ccccc3C(=O)N2CCC(C)C)cc1OC (stereo not drawn)
 : -4	4.3	14	27	-5	-0.1	-3.2	i	5	-10
39: Cc1ccc(S(=O)(=O)N2CCOCC2)cc1C(=O)N(C)CCOc1ccc(Cl)cc1
 : -9	2.0	-6	1	7	-1.4	-0.7	i	30	3
40: CCOc1cc(NC(=S)NCCCN2CCOCC2)c(OCC)cc1NC(=O)c1cccc(F)c1
 : 16	.	26	-8	-7	2.0	0.2	i	.	3
41: O=[N+]([O-])CC(c1ccccc1)P(=O)(c1ccccc1)c1ccccc1 (stereo not drawn)
 : 5	-3.0	-4	94*	-13	-2.1	2.7	i	-5	-1
42: OCc1cc(CO)c(O)c(CCc2ccccc2)n1
 : .	-0.9	47	2	1	.	.	.	13	.
43: c1ccc(-c2nnc(N3CCOCC3)nc2-c2ccccc2)cc1
 : .	1.1	-8	?	-1	.	.	.	38	.
44: COCCn1c(C)cc(C(=O)COC(=O)CCN2C(=O)c3ccccc3C2=O)c1C
 : .	-2.1	0	23	-4	.	.	.	-13	.
45: O=C(COC(=O)c1ccc(Cl)c([N+](=O)[O-])c1)NC1CCCC1
 : 12	-0.9	-5	-2	-7	-1.7	-0.2	i	7	22
46: CCOC(=O)c1cccc(NC(=O)CCn2nc(C)c(S(=O)(=O)N3CCCCC3)c2C)c1
 : 3	-1.0	-6	-5	-4	-9.4	-2.8	i	2	2
47: CCCCn1c(=O)[nH]c2nc3cc(N)ccc3nc2c1=O
 : 67	.	16	.	-5	-14	1.8	i	.	7
48: O=C(c1cccc(S(=O)(=O)NCc2ccc3c(c2)OCO3)c1)N1CCCC1
 : 3	.	-12	.	0	-0.4	2.4	i	.	7
49: Cc1ccc(NC(=S)N2CCOCC2)cc1
 : 0	2.7	-1	-1	5	-0.9	-5.5	i	-20	0
50: O=C1c2ccccc2C(=O)N1Nc1ccc([N+](=O)[O-])cc1[N+](=O)[O-]
 : 18	2.8	.	-10	-5	-3.4	0.4	i	-7	14
51: CC(C)C(=O)Nc1cccc(C(=O)Nc2ccccc2C(=O)O)c1
 : .	4.4	-10	-8	-3	.	.	.	-7	.
52: CCOC(=O)c1sc2nc3n(c(=O)c2c1C)CCCCC3
 : .	-5.3	3	0	-7	.	.	.	-6	.
53: COc1ccc(-c2cc(=O)oc3cc(OCC(=O)N4CCOCC4)ccc23)cc1
 : -4	3.1	-4	25	-6	0.7	-2.3	i	4	-7
54: Cc1cc(OCC(=O)N2CCN(c3cccc(Cl)c3)CC2)c2c(C)c(C)c(=O)oc2c1
 : -6	-1.2	-1	3	5	0.1	6.7	i	15	11
55: O=S(=O)(/C=C/c1ccccc1)Nc1cccc(S(=O)(=O)NC2=NCCC2)c1
 : 5	-3.1	-1	?	-2	-3.1	0.7	i	-1	2
56: O=C(CSc1ncccc1C(=O)O)Nc1ccc2c(c1)OCCO2
 : 4	-7.0	-11	-4	-1	-3.2	-1.4	i	-6	18
57: CCOC(=O)c1c(NC(=O)COC)sc(C(C)=O)c1C
 : .	?	-1	12	-3	.	.	.	10	.
58: CCCCn1nc2cc(C(=O)N(CC)c3ccc(OC)cc3)ccc2c1OCC
 : -13	5.4	1	-9	-4	-0.5	7.2	i	-21	-10
